LYPLA1 counter = LYPLA1 inhibitors, primary screen, counter-screen for PME1 inhibitor project, biochemical, fluorescence polarization, FP-Rh probe ABPP; Acyl-protein thioesterase 1 (Homo sapiens), O75608; recombinant LYPLA1; inhibition, % at 5.9 µM; hit rate 0.16% among 320,000; AID 2174, 2009;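 active means inhibition above the mean of all tested compounds plus 3 SD, set per campaign, cut at about 14% in these data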;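 further: inhibitors block serine hydrolase probe labeling of LYPLA1 so polarization falls; 0% = enzyme with DMSO and 100% = wells lacking LYPLA1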
Target sequence (O75608 whole entry, looked up): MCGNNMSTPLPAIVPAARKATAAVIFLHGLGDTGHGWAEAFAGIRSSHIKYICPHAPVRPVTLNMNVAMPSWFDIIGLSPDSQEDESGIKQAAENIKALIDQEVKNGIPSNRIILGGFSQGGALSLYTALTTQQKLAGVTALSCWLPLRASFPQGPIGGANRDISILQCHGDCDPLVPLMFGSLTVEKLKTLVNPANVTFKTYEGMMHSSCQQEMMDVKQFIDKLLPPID
PAFAH2 FP inh = PAFAH2 enzyme inhibitors, primary screen, biochemical, fluorescence polarization, human. Platelet-activating factor acetylhydrolase 2, cytoplasmic (Homo sapiens), Q99487. hit rate 0.99% among 340,000. AID 492956, 2010. inhibition, % at 3.39 µM. recombinant PAFAH2, FP-rhodamine activity probe;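 active means inhibition above the mean over all tested compounds plus 3 SD, cut at about 30% in these data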;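 further: inhibitors block probe labeling of enzyme so polarization drops; 0% = enzyme with DMSO and 100% = wells lacking PAFAH2 protein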
PME-1 inh = PME-1 inhibitors via competitive probe labeling, primary screen, biochemical, fluorescence polarization, FP-Rh probe, HTS; AID 2130, 2009; inhibition, % at 5.9 µM; hit rate 0.53% among 320,000; Protein phosphatase methylesterase 1 (Homo sapiens), Q9Y570; recombinant PME-1;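 active means inhibition above the campaign mean of all compounds plus 3 SD, cut at about 26% in these data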;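 further: competitive labeling of PME-1 active site by serine hydrolase directed probe; 0% = PME-1 with DMSO and 100% = wells lacking PME-1 enzyme; inhibitors block probe labeling so polarization falls and inhibition rises; many of its hits are not listed in these tables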
Fam108B inh = mouse Fam108B serine hydrolase inhibitors, primary screen, counter-screen for RBBP9 inhibitor project, biochemical, fluorescence polarization; recombinant Fam108B, FP-Rh probe fluorescence polarization; inhibition, % at 9.51 µM; hit rate 0.33% among 300,000; AID 1947, 2009;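 active means inhibition above the screen mean inhibition plus 3 SD, computed separately per campaign, cut at about 18% in these data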;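 further: inhibitors lower polarization as less probe binds the enzyme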
PAFAH1B3 inh = PAFAH1B3 enzyme inhibitors, primary screen, biochemical, fluorescence polarization, human | Platelet-activating factor acetylhydrolase IB subunit alpha1 (Homo sapiens), Q15102 | recombinant PAFAH1B3, FP-rhodamine probe | inhibition, % at 3.39 µM | hit rate 0.28% among 340,000 | AID 492972, 2010;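 active means inhibition above the screen-wide average of all tested compounds plus 3 SD, cut at about 25% in these data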;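 further: 0% = enzyme with DMSO only and 100% = wells lacking PAFAH1B3 protein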
Target sequence (Q15102 whole entry, looked up): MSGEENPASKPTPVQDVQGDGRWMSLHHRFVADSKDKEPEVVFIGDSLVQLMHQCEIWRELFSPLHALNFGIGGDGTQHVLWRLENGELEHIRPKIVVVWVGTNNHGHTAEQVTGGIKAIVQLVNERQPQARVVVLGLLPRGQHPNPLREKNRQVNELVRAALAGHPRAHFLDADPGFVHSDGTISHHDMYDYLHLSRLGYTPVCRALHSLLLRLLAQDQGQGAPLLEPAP
PAD4 FP inh = human PAD4 inhibitors, primary screen, biochemical, fluorescence polarization, 1536-well format; Protein-arginine deiminase type-4 (Homo sapiens), Q9UM07; recombinant PAD4, RCA probe fluorescence polarization; inhibition, % at 6.36 µM; hit rate 0.41% among 330,000;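 active means percent inhibition above a cutoff equal to the mean of all tested compounds plus 3 SD, cut at about 15% in these data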;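 further: 0% = PAD4 with RCA probe and DMSO and 100% = probe without PAD4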
Active calls of the source: *; · = no result given.

Each structure is followed by: LYPLA1 counter, PAFAH2 FP inh, PME-1 inh, Fam108B inh, PAFAH1B3 inh, PAD4 FP inh
Cc1nnc(SCC(=O)N2CCC(c3noc4ccc(F)cc34)CC2)s1
    -2.2, 3.5, -0.7, -0.5, 1.7, -2.4
Cc1ccc(C2=NNC(C(O)C(O)C(O)CO)S2)cc1 (stereo not drawn)
    2.9, -8.0, -5.5, 0.0, 11.8, -4.3
CC(=O)SC(C[N+](=O)[O-])c1cn(C(C)=O)c2ccccc12 (stereo not drawn)
    -4.4, 1.3, 1.7, 3.8, 9.6, -6.1
CCOC(=O)N1CCN(C(=O)CSc2nnc(COc3ccccc3)o2)CC1
    0.6, 2.5, -1.9, 2.3, 1.6, -2.3
c1cncc(C(c2nnnn2C2CCCC2)N2CCCC2)c1 (stereo not drawn)
    4.6, 4.1, 3.2, -1.2, 1.7, 1.8
O=C(c1ccc(Cl)cc1)C(CN1CCCCC1)c1ccccc1 (stereo not drawn)
    -1.8, -33.9, -4.2, -3.5, -10.0, -6.0
COc1ccccc1NC(=O)C1=C(C)Nc2nc3ccccc3n2C1c1cccs1 (stereo not drawn)
    0.9, 5.6, -1.3, 0.2, 8.3, -0.6
Cc1c(N=C2NC(=O)C(CC(=O)Nc3ccccc3)S2)c(=O)n(-c2ccccc2)n1C (stereo not drawn)
    2.8, -1.6, -4.9, -4.0, 5.5, 2.9
N#Cc1ccc(-c2cccnc2)nc1SCc1ccc(Cl)cc1Cl
    1.6, -2.1, 8.3, -3.6, 0.5, -2.7
CC1(C)Cc2nc3sc4c(=O)[nH]cnc4c3cc2CS1
    1.2, -14.6, -5.2, 0.1, 9.2, 2.1

Profiles from above. Order of values: LYPLA1 counter	PAFAH2 FP inh	PME-1 inh	Fam108B inh	PAFAH1B3 inh	PAD4 FP inh
Results for `COc1ccccc1NC(=O)C1=C(C)Nc2nc3ccccc3n2C1c1cccs1` (stereo not drawn) → 0.9	5.6	-1.3	0.2	8.3	-0.6
Results for `Cc1c(N=C2NC(=O)C(CC(=O)Nc3ccccc3)S2)c(=O)n(-c2ccccc2)n1C` (stereo not drawn) → 2.8	-1.6	-4.9	-4.0	5.5	2.9

Additional compounds:
Each structure is followed by: LYPLA1 counter, PAFAH2 FP inh, PME-1 inh, Fam108B inh, PAFAH1B3 inh, PAD4 FP inh
CC(C)C(c1nnnn1C1CCCCC1)N1CCc2ccccc2C1 (stereo not drawn)
    -2.1, 7.6, -5.4, 5.0, -1.7, 1.4
CCn1nc(C(=O)NNS(=O)(=O)c2cc(/C=C/C(=O)O)cc(OC)c2OC)c2ccccc2c1=O
    ·, -6.4, ·, ·, 2.9, -21.6
COCC(C)NS(=O)(=O)c1ccc(NC(=O)C(Cc2ccccc2)NC(N)=O)cc1 (stereo not drawn)
    1.6, 1.0, -4.5, 3.2, 1.2, -3.7
O=C(O)c1ccc(NS(=O)(=O)c2cccc3cccnc23)cc1
    -2.5, -2.4, 5.3, -0.8, 4.0, 0.0
O=S(=O)(c1ccc(F)cc1)N1CCCC(CO)C1 (stereo not drawn)
    0.1, 5.1, 0.9, 2.2, 10.6, 4.4
Cc1cccc(Nc2nc(-c3ccccc3)c(C(=O)Nc3cccnc3)s2)c1
    -4.6, 2.3, 6.1, 6.4, 3.6, 1.3
O=C(CSc1nc(C2CC2)n(-c2ccccc2)n1)NCc1ccco1
    -1.5, 2.6, 3.4, ·, 15.5, 1.8
Cc1ccc(Cl)cc1NC(=O)COC(=O)CC1CC2CCC1C2 (stereo not drawn)
    -3.2, 27.2, 5.1, -0.7, 0.6, -3.4

Taken from above.
Fam108B inh with `Cc1cccc(Nc2nc(-c3ccccc3)c(C(=O)Nc3cccnc3)s2)c1` is entered as 6.4
LYPLA1 counter with `COCC(C)NS(=O)(=O)c1ccc(NC(=O)C(Cc2ccccc2)NC(N)=O)cc1` (stereo not drawn) is entered as 1.6
Fam108B inh with `CC(C)C(c1nnnn1C1CCCCC1)N1CCc2ccccc2C1` (stereo not drawn) is entered as 5.0
PME-1 inh with `O=C(CSc1nc(C2CC2)n(-c2ccccc2)n1)NCc1ccco1` is entered as 3.4
PME-1 inh with `Cc1ccc(Cl)cc1NC(=O)COC(=O)CC1CC2CCC1C2` (stereo not drawn) is entered as 5.1
PAFAH1B3 inh with `CCn1nc(C(=O)NNS(=O)(=O)c2cc(/C=C/C(=O)O)cc(OC)c2OC)c2ccccc2c1=O` is entered as 2.9

3 records drawn at random from those above:
Each structure is followed by: LYPLA1 counter, PAFAH2 FP inh, PME-1 inh, Fam108B inh, PAFAH1B3 inh, PAD4 FP inh
N#Cc1ccc(-c2cccnc2)nc1SCc1ccc(Cl)cc1Cl
    1.6, -2.1, 8.3, -3.6, 0.5, -2.7
O=C(CSc1nc(C2CC2)n(-c2ccccc2)n1)NCc1ccco1
    -1.5, 2.6, 3.4, ·, 15.5, 1.8
O=C(O)c1ccc(NS(=O)(=O)c2cccc3cccnc23)cc1
    -2.5, -2.4, 5.3, -0.8, 4.0, 0.0

Compound activity as filed in PubChem BioAssay.

Some of the compounds tested (hit frequency here may not be typical).
